PINK1 modulator: A Quantitative High throughput Screen to Identify Chemical Modulators of PINK1 Expression; PINK1 immunofluorescence, high-content cytometry, 24 h; Potency, µM (highest dose often 76.6 µM), inactives show top-dose activation (PINK1 increase), most hits filed as activators; 410,000 tested, 0.2% active; AID 624263, 2012; active = well fitted activation curve with a large enough effect; inconclusive = small, poorly fitted or top-dose-only effect; inactive = flat fitted curve, though single readings scatter; cell line not stated here;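 also: potency is read from the fitted curve at half-maximal effect; % of control where 0% means no effect; nearly all actives have a fitted effect of over 65% in size; a mitochondrial uncoupler was the plate control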
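Readout is PINK1 immunofluorescence, quantified alongside mitochondrial, cell and nuclear markers by laser-scanning microplate cytometry. Cells from a stable line were exposed to compound titrations (5 concentrations) for 24 hours, with CCCP controls.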
TRPML1 ag: qHTS for Agonists of the Human Mucolipin Transient Receptor Potential 1 (TRPML1) | activation, % (test concentration not listed) | TRPML1-expressing cells, Ca2+ dye fluorescence, FDSS; host cell line not named in the record; reference of the full effect not given here | Mucolipin-1 (Homo sapiens), Q9GZU1 | 410,000 tested, 0.12% active | AID 624414, 2012; in the data active = activation above about 50%; inconclusive = about 30% to 50%; inactive = below about 30%; also: 0% is about no effect; the text of the record puts the active cut at 80%
Target sequence (Q9GZU1 whole entry, looked up): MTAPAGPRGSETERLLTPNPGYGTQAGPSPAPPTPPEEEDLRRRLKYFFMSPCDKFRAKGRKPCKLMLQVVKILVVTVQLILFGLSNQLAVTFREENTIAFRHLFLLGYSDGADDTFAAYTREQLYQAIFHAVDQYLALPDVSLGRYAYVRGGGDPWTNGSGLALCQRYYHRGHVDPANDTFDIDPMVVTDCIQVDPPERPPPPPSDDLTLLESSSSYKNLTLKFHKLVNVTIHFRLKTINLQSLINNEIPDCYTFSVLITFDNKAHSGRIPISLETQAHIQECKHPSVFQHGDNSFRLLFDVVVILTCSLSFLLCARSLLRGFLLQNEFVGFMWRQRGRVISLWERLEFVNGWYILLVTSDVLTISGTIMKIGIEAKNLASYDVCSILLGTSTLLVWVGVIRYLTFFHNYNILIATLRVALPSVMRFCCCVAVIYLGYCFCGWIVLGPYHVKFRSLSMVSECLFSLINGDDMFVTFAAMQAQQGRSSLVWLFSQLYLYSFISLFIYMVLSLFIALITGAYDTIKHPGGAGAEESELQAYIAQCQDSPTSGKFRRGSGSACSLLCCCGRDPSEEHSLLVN
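In this qHTS format, compounds were pin-transferred onto Ca8-dye-loaded TRPML1-DL cells induced with Tet overnight, and intracellular Ca2+ fluorescence was recorded kinetically for 110 s after a 10 s baseline. A subsequent 4uM final 54-4 (EC80) addition followed by a second 110 s read served as the antagonist phase.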
Active calls of the source: *. Some of the compounds tested. The share of hits here may be higher or lower than overall.

The first 4 records (preview)
SMILES | PINK1 modulator | TRPML1 ag
Cc1ccc(CCNC(=O)Cn2c(-c3cccs3)cc3ccccc32)cc1 | 11% | 1.8
Cc1ccc(NS(=O)(=O)c2c(C(=O)N3CCCCCC3)c(C)n(C)c2C)cc1F | -0.9% | 1.1
Cc1cc(NC(=O)C2CCCN(S(=O)(=O)c3ccc(Br)s3)C2)ccc1Br (stereo not drawn) | -1.4% | 4.8
COC(=O)CCc1sc(Nc2ccc(OC)cc2)nc1-c1ccc(OC)cc1 | 1.1% | 1.0

The whole of this part, from the start:
SMILES | PINK1 modulator | TRPML1 ag
Cc1ccc(CCNC(=O)Cn2c(-c3cccs3)cc3ccccc32)cc1 | 11% | 1.8
Cc1ccc(NS(=O)(=O)c2c(C(=O)N3CCCCCC3)c(C)n(C)c2C)cc1F | -0.9% | 1.1
Cc1cc(NC(=O)C2CCCN(S(=O)(=O)c3ccc(Br)s3)C2)ccc1Br (stereo not drawn) | -1.4% | 4.8
COC(=O)CCc1sc(Nc2ccc(OC)cc2)nc1-c1ccc(OC)cc1 | 1.1% | 1.0
CC(C)Cn1cc(NC(=O)NCc2ccccc2)c2ccccc2c1=O | -4.3% | -0.2
Cc1cc(O)c(C(c2ccccc2)N2CCN(C)CC2)c(=O)n1Cc1ccco1 (stereo not drawn) | 1.4% | 0.4
CCC1CCCCN1C(=O)CSc1nc2c([nH]c3ccccc32)c(=O)n1-c1cccc(OC)c1 (stereo not drawn) | -3.5% | 2.8
CN1C(=O)c2ccccc2Sc2ccc(NC(=O)N3CCN(c4cccc(Cl)c4)CC3)cc21 | 0.0% | 0.3
O=C(OCC1CCCO1)c1ccc2c(c1)N(Cc1ccccc1F)C(=O)c1ccccc1S2(=O)=O (stereo not drawn) | -0.4% | 2.1
O=C(C1CCC(Cn2c(=O)c3sccc3n(Cc3ccccc3F)c2=O)CC1)N1CCOCC1 (stereo not drawn) | -0.6% | 0.8
Cc1ccc(CN(C(=O)COc2ccc(Cl)cc2)c2ccccn2)o1 | -0.1% | -0.9
COc1cc2nc(N3CCCN(C)CC3)nc(N)c2cc1OC | 1.2% | -0.4
CCOC(=O)c1ccc(Nc2ncnc3c2cnn3-c2cccc(Cl)c2)cc1 | 1.0% | 0.3
CCc1ccccc1OCCSc1nnc(-c2cc(OC)c(OC)c(OC)c2)o1 | 2.7% | 2.5
CCn1cc(/C=C(\NC(=O)c2ccccc2Cl)C(=O)NCCCn2ccnc2)c2ccccc21 | -4.2% | 1.9
CCOc1ccc(NC(=O)CC2C(=O)N(c3ccc(OC)cc3)C(=O)N2C2CCCCC2)cc1 (stereo not drawn) | 1.8% | 0.1
Cc1nc2c(c(C)c1CCC(=O)Nc1ccc(F)cc1)c(=O)n(C)c(=O)n2C | 0.8% | -0.7
CCCCN(C)CCNC(=O)Cn1ncc2c3ccccc3n(CCC)c2c1=O | 2.7% | 0.8
Cc1ccc(C(=O)NCC(c2cccs2)S(=O)(=O)c2cccs2)cc1C (stereo not drawn) | 1.7% | 1.8
Cc1ccc(NC(=O)c2sc3nc(-c4ccc(F)cc4)ccc3c2N)cc1F | 5.7% | 2.5
CCCN(CCC)C(=O)Cn1c(=O)n(-c2cccc(C(F)(F)F)c2)c(=O)c2c(C)c(C)sc21 | 1.7% | 3.4
CCc1ccccc1NC(=O)Cn1cc2c(n1)CCC(C)C2 (stereo not drawn) | 0.3% | -1.1
CC(C)c1ccc(NC(=O)[C@H]2O[C@@H]3OC(C)(C)O[C@@H]3[C@H]3OC(C)(C)O[C@H]32)cc1 | 0.1% | -0.7
Cc1ccc(CNS(=O)(=O)c2c(C)nc3sc(C)cn3c2=O)cc1 | -0.9% | 1.1
Cc1cccc(CNC(=O)c2cnc3sc(N4CCOCC4)nn3c2=O)c1 | 3.3% | 0.2
COc1ccc(CNC(=O)CCCc2cn(C)c3ccccc23)c(OC)c1 | -0.9% | 3.7
O=c1cc(-c2ccccc2)c2ccc3c(c2o1)CN(Cc1ccccc1)CO3 | -0.4% | 0.3
Cc1ccc(N2C(=O)CSC23C(=O)N(CC(=O)NCCc2ccccc2)c2ccccc23)cc1C (stereo not drawn) | 20% | 1.5
O=C1c2[nH]nc(-c3ccccc3O)c2C(c2cccc(Br)c2)N1Cc1ccncc1 (stereo not drawn) | 3.9% | -0.2
CCOC(=O)c1ccc(NC(=O)c2c(NCc3cccc(OC)c3)sc3c2CCC3)cc1 | 5.3% | -0.4

Brought forward from above: four compounds; new compounds follow.
SMILES | PINK1 modulator | TRPML1 ag
O=c1cc(-c2ccccc2)c2ccc3c(c2o1)CN(Cc1ccccc1)CO3 | -0.4% | 0.3
Cc1ccc(N2C(=O)CSC23C(=O)N(CC(=O)NCCc2ccccc2)c2ccccc23)cc1C (stereo not drawn) | 20% | 1.5
O=C1c2[nH]nc(-c3ccccc3O)c2C(c2cccc(Br)c2)N1Cc1ccncc1 (stereo not drawn) | 3.9% | -0.2
CCOC(=O)c1ccc(NC(=O)c2c(NCc3cccc(OC)c3)sc3c2CCC3)cc1 | 5.3% | -0.4
O=C(NCc1ccccc1)c1cc(Sc2cccc(Cl)c2)nc2ccccc12 | 0.5% | 2.9
N#C/C(=C\c1ccc(F)cc1)C(=O)NCC1CCCO1 (stereo not drawn) | 0.2% | -0.6
COc1ccc(-c2cc(C(=O)NCCc3ccccc3)c3cc(C(C)C)ccc3n2)cc1 | -0.2% | -0.3
Cc1ccc(C)c(N2CCN(S(=O)(=O)c3cc(-c4cc(C)no4)ccc3C)CC2)c1 | -1.0% | 1.2
COc1ccc(N2CCN(S(=O)(=O)CCNC(=O)Cc3ccc(OC)c(OC)c3)CC2)cc1 | -1.2% | 1.2
COC(=O)c1ccccc1-n1cc2c(c1-c1cccc(C)c1)c(=O)n(C)c(=O)n2C | -0.5% | -0.1
CCOCCCNC(=O)C(c1ccc(C)cc1)N(Cc1cccs1)C(=O)c1ccc(NC(C)=O)cc1 (stereo not drawn) | 1.8% | 0.0
CC(C)c1ccc(NC(=O)c2cc3c(s2)-c2ccccc2SC3)cc1 | -1.1% | -0.1
CCc1ccc(NC(=O)CSc2ccc3nc(-c4ccc(OC)cc4)cn3n2)cc1 | 3.3% | -0.9
Oc1c(C(c2ccccc2F)N2CCCCC2)sc2nc(-c3ccco3)nn12 (stereo not drawn) | 4.8% | 2.2
CCOC(=O)c1cc(-c2ccc(C)cc2)n(CC(=O)NC2CCCCCC2)c1C | 0.9% | -1.3
CC(C)Sc1ncc(Cl)c(C(=O)Nc2nc3ccc(S(C)(=O)=O)cc3s2)n1 | 0.5% | 2.1
CCCC(C(=O)Nc1cc(C)c(Cl)cc1OC)N1Cc2ccccc2C1=O (stereo not drawn) | 0.5% | 0.4
COc1ccc(S(=O)(=O)N(CC(=O)Nc2ccc(OC)cc2OC)c2ccc(Cl)cc2)cc1 | 0.3% | -0.2
COc1ccc(-c2nc3ccccc3o2)cc1NC(=O)Cc1ccc(Cl)cc1 | 2.0% | 1.3
CCCCSc1nc(-c2ccc(OC)cc2)ccc1C#N | -0.9% | 3.1
O=C(CCCCCn1c(=O)[nH]c2ccccc2c1=O)NCCc1ccccc1 | 1.1% | 0.4
Cc1ccc(CN2CCCn3nc(C(=O)NCc4ccc(N(C)C)cc4)cc3C2=O)cc1 | 0.9% | 0.6
O=C(NCc1ccco1)c1ccc(Cn2c(SCc3ccccc3F)nc3cccnc32)cc1 | -0.3% | 3.7
Cc1nnc(N2CCCC(C(=O)Nc3ccccc3C(F)(F)F)C2)c2nn(-c3ccccc3)c(C)c12 (stereo not drawn) | 1.4% | 3.5
Cc1ccc2c(c1)N(CC(=O)NCc1cccc(Cl)c1)C(=O)c1cccnc1O2 | 1.2% | 0.9
COCc1cc(C)nc2sc3c(c12)NC(c1ccc(NC(C)=O)cc1)N(c1ccc(C)cc1)C3=O (stereo not drawn) | 0.2% | 0.3
CCn1c(=O)c2sccc2n2c(CCC(=O)N3CCN(c4ccccc4OC)CC3)nnc12 | -1.1% | 1.4
CCOc1ccc(CNCCCSc2nnnn2C)cc1OC | 0.2% | -0.6
CCN1CCc2nc3sc(C(=O)Nc4ccccc4OC(F)(F)F)c(N)c3cc2C1 | 3.5% | 0.1
CCOc1ccc(Nc2nc(Nc3ccc(OCC)cc3)nc(N3CCOCC3)n2)cc1 | -1.1% | -0.7
CCOc1ccc(NC(=O)c2cc(=O)c3cc(CC)ccc3o2)cc1 | 1.2% | -0.6
CCc1ccccc1NC(=O)CSc1nccn1C | -0.2% | 2.2
CCCC(=O)Nc1cc(-c2nnc3c4ccccc4c(C)nn23)ccc1C | 0.4% | 0.6
COc1cccc(CNC(=O)c2ccc3c(=O)n4nc(Nc5ccccc5)sc4nc3c2)c1 | 0.0% | 0.6

Another view of part of the listing above:
smiles	PINK1 modulator	TRPML1 ag
CCOc1ccc(CNCCCSc2nnnn2C)cc1OC	0.2%	-0.6
CCN1CCc2nc3sc(C(=O)Nc4ccccc4OC(F)(F)F)c(N)c3cc2C1	3.5%	0.1
CCOc1ccc(Nc2nc(Nc3ccc(OCC)cc3)nc(N3CCOCC3)n2)cc1	-1.1%	-0.7

Next part:
SMILES | PINK1 modulator | TRPML1 ag
Cc1ccc(CNC(=O)CCc2c(C)nc3c(-c4ccc(F)cc4)c(C)nn3c2C)cc1 | 2.4% | -0.4
CCOc1ccc(-c2csc(-c3c(N)c(C(=O)c4ccc5c(c4)OCO5)n4ccccc34)n2)cc1 | 1.1% | 1.6
CCc1ccccc1NC(=O)Cn1nc(N2CCN(c3ccccc3OC)CC2)ccc1=O | 4.4% | 1.4
CCc1ccc(NC(=O)Cn2c(=O)n(CCC(=O)NCCc3ccc(Cl)cc3)c(=O)c3ccccc32)cc1 | 0.8% | -0.7
COc1ccc(CN(C(=O)Nc2ccc(C)c(F)c2)C2CCN(C(C)=O)CC2)cc1 | 0.9% | 0.8
CSc1ccccc1NC(=O)CCS(=O)(=O)c1nc(-c2cccs2)cc(C(F)(F)F)n1 | 0.8% | -0.8
COc1cccc(CNC(=O)c2sc3nc(C)cc(C)c3c2-n2cccc2)c1OC | 2.2% | 3.5
CCN(CC)S(=O)(=O)c1nnc(NC(=O)COc2ccc(Cl)cc2)s1 | 0.4% | 1.6
O=C1C2=C(Nc3ccccc3SC2c2ccccc2C(F)(F)F)c2ccccc21 (stereo not drawn) | 13µM* | 0.5
O=C(NCc1ccccc1Cl)c1cnc(N2CCOCC2)c2ccccc12 | 2.2% | -0.6
CCOC(=O)C(CC)n1nc(C)c2c(C)n(-c3ccc(C)cc3)nc2c1=O (stereo not drawn) | 1.7% | 2.1
CC1CCN(c2oc(/C=C/c3ccc(F)cc3)nc2C#N)CC1 | -0.8% | -0.4
CCCCc1ccc(Nc2ncnc3c2cnn3-c2ccc(C)cc2)cc1 | 0.7% | 2.1
COc1cc(OC)c(NC(=O)CC(C)S(=O)(=O)c2ccc3c(c2)NC(=O)CO3)cc1Cl (stereo not drawn) | 6.0% | 2.8
CCOC(=O)c1c(NC(=O)c2ccc(OCC)c(Br)c2)sc2c1CCCC2 | 1.0% | 0.5
COc1ccc(CCNS(=O)(=O)c2c(C)nc3sc(C)cn3c2=O)cc1OC | 0.7% | -0.5
O=C(NC1CCCCCC1)C1CCN(C(=O)N2CCOc3ccccc32)CC1 | 0.8% | -0.2
O=C(NCc1ccc(F)cc1)c1c2c(nc3ccccc13)C(=O)N(C1CCCCC1)C2 | -0.3% | 0.6
COc1ccc(NC(=O)c2ccc(NC(=O)CCS(=O)(=O)c3cccs3)cc2)cc1OC | 2.0% | 0.3
CCOC(=O)c1sc2ncn(CC(=O)Nc3ccc(F)cc3F)c(=O)c2c1C | -0.8% | -0.6
CCN(CC)C(=O)CSc1nnc2ccc3ccccc3n12 | -0.1% | 0.3
Cc1cc(C)cc(NC(=O)CSc2nc(=O)[nH]c3c2CCC3)c1 | 0.4% | 0.5
COc1ccc(Nc2c(-c3ccc(C)o3)nc3ccc(Cl)cn23)cc1 | 1.2% | -1.1
Cc1ccc(C)c(N2CCN(C3=C(c4ccccc4)C(=O)c4ccccc43)CC2)c1 | 0.3% | -0.9
CCOc1ccccc1NC(=O)CSc1ncc(S(=O)(=O)c2ccc(C)c(C)c2)c(N)n1 | 6.0% | -0.1
CCCCOC(=O)Cn1nnc2sc(-c3ccccc3)cc2c1=O | -0.2% | 4.0
CCOc1ccccc1C(=O)N1CC(=O)Nc2ccc(C)cc2C1c1ccccc1 (stereo not drawn) | -0.3% | 0.2
O=C(Nc1ccc2nc(SCC(=O)N3CCCc4ccccc43)sc2c1)c1cccc(F)c1 | -0.1% | 1.8
Cc1ccc(C)c(N2CCN(S(=O)(=O)c3c(C(=O)N4CCC(C)CC4)c(C)n(C)c3C)CC2)c1 | 1.7% | 55*
Cc1ccc(-c2nc3c4cnn(-c5cc(Cl)ccc5Cl)c4ncn3n2)cc1 | -0.5% | 1.7
Cc1cc(C)cc(NC(=O)C2CCCN(c3nnc(C)c4c(C)n(-c5ccccc5)nc34)C2)c1 (stereo not drawn) | 0.5% | 0.7
CCCC(=O)OCc1cnc(C)c2oc(=O)c(C(=O)Nc3cccc(C(F)(F)F)c3)cc12 | -0.6% | 3.4
Cc1ccccc1-c1nn2c(=O)cc(CN3CCN(C(=O)c4ccccc4Br)CC3)nc2s1 | 1.0% | 1.2
